Compound activity deposited in PubChem by National Center for Advancing Translational Sciences (NCATS).
2A Renilla: Primary qHTS Assay for Foot and Mouth Disease Virus Antivirals against NCGC Sytravon and CBC Compound Libraries: Renilla Luciferase Signal | HEK cells with a luciferase reporter of 2A StopGo recoding | Potency, µM (series often up to 57.5 µM), for the others: at the highest dose signal change, negative = less light | 120,000 compounds, 0.32% hits | AID 1745857, 2022; active means well fitted falling curve with a large enough effect; inconclusive means small, poorly fitted or top-dose-only effect; inactive means no such curve, though single readings can be large or run the other way; note: nearly all actives have a fitted effect of over 55% in size; overnight with compound
StopGo FLuc: Primary qHTS Assay for Foot and Mouth Disease Virus Antivirals against NCGC Sytravon and CBC Compound Libraries: Firefly Luciferase Signal; Potency, µM (titrated, usually from 57.5 µM), for the others: at the highest dose signal change, negative = less light; AID 1745856, 2022; 120,000 compounds, 0.23% hits; HEK cells with a luciferase reporter of 2A StopGo recoding; active = well fitted falling curve with a large enough effect; inconclusive = small, poorly fitted or top-dose-only effect; inactive = no such curve, though single readings can be large or run the other way; note: nearly all actives have a fitted effect of over 60% in size; overnight with compound
Numbers without * were called inactive; ? = inconclusive; & = joins results of further samples; [ ] = remark or other dose. % is set by controls: 0 for no effect and ±100 for the full control effect; potency is the fitted concentration of half-maximal effect. An excerpt; the hit share may differ from the screen's.

SMILES | 2A Renilla | StopGo FLuc
COc1ccccc1C(=O)Nc1nnc(S(=O)(=O)N2CCCCCC2)s1 | 78%[activator] | 21%
COCC(=O)NNC(=S)NCC(C)C | 16% | 20%
Cn1c(=O)c2cc(C(=O)NCCCN3CCN(c4cccc(Cl)c4)CC3)sc2c2ccccc21 | -13% | -21%
O=C(O)/C=C/c1ccc(Cl)cc1 | 10% | 18%
CCCCNC(=O)c1cccc(NC(=O)c2ccncc2)c1 | 0% | 48%[activator]
COc1ccc(-c2cc(OC(=O)c3ccccc3C)c3c(C)oc(C)c3c(=O)c2)cc1 | 7% | 4%
CCOC(=O)c1cnc2c(Cl)cccc2c1Nc1ccc(OC)cc1 | -8% | -2%
CCN(CC)C(=O)CSC1=C(C#N)C(c2ccco2)C(C(=O)Nc2ccc(F)cc2)=C(C)N1 (stereo not given) | 17% | -16%
COc1ccc(-n2c(C)nc3c(cnn3-c3ccc(F)cc3)c2=O)cc1 | -18% | -25%
O=C(Nc1ccc(F)cc1)C(=O)c1cn(CC(=O)N2CCOCC2)c2ccccc12 | 18% | 106%[activator]
COC(=O)[C@H](C(C)C)N(Cc1cn(Cc2ccccc2)nn1)S(=O)(=O)c1ccc(F)cc1Br | 75%[activator] | -12%
COc1ccc(-c2nc(C)c(C(=O)N3CCN(C(C#N)c4ccc(F)cc4)CC3)s2)cc1OC (stereo not given) | 2% | 84%[activator]
CC(C)(C)C(=O)/C=c1/[nH]c(=O)/c(=C/c2c(F)cccc2F)s1 | 57%[activator] | 110%[activator]
COc1ccccc1N1CCNCC1 | -1% | -3%
CN(Cc1ccccc1)S(=O)(=O)c1ccc(-c2nc(C#N)c(NCc3cccnc3)o2)cc1 | 242%[activator] | 11%
CCCSC1=C(C#N)C(c2ccc(C)cc2)CC(=O)N1 (stereo not given) | 15% | 9%
COc1ccc(-c2nnc(CN3CCC(c4ccn[nH]4)CC3)o2)cc1 | -12% | -4%
Cc1c(C(=O)Nc2nnc(C(C)C)s2)nnn1-c1ccccc1 | 9% | -17%
CCN(Cc1cc2cc(C)ccc2[nH]c1=O)C(=O)c1ccc(C)cc1 | ? | ?
CCN(C(=O)Cn1cc(C(=O)OC)c2ccccc21)c1ccccc1 | 5% | 5%
CN(C)C1(CNC(=O)Cc2cccs2)CCCCC1 | -11%[1.06 µM] | 19%
CCc1ccc(NC(=O)N2CCN(C(=O)c3nsc4ccccc34)CC2)cc1 | -9% | -7%
COc1ccc(C)cc1NC(=O)COC(=O)c1ccc2ccccc2n1 | -14% | -11%
CC(NS(C)(=O)=O)C(=O)O (stereo not given) | 6% | 0%
CCCCOC(=O)COc1ccc2c(=O)c(Oc3cc(C)cc(C)c3)coc2c1 | 5% | 6%
CCc1ccc(NC(=O)c2cc3c(=O)n(Cc4cccnc4)ccc3nc2C)cc1 | -15% | -6%
COc1ccc(-c2cc(C(=O)Nc3nnc(C)s3)no2)cc1 | 5% | 18%
CC(C)(C)C(=O)Nc1cccc(NC(=O)c2cc(Cl)ccc2F)c1 | 16% | 0%
CCC(C)(C)C1CCC(NC(=S)Nc2cccc(Cl)c2Cl)CC1 (stereo not given) | -12%[1.06 µM] | -12%
Cc1ccc2ncc(C(=O)Nc3ccc(OC(F)(F)F)cc3)c(=O)n2c1 | -1% | 0%
O=C(CCn1ccc2cc(S(=O)(=O)N3CCCC3)ccc21)NCc1cccc(Cl)c1 | 47%[activator] | -16%
CSCCC(NS(=O)(=O)c1ccc2c(c1)oc(=O)n2C)C(=O)N1CCN(c2ccc(C(C)=O)cc2)CC1 (stereo not given) | -5% | -12%
COc1ccc(C(=O)N2CCc3cc(OC)c(OC)cc3C2COc2ccc3c(C)cc(=O)oc3c2)c(OC)c1 (stereo not given) | 2% | -14%
CCOc1ccc2oc(=O)cc(CN3CCN(C(=O)c4ccc(OC)c(OC)c4)CC3)c2c1 | -10%&-11% | -5%&-6%
Cc1ccc(C)c(NC(=O)Cc2c[nH]c3ccccc23)c1 | 24% | 16%
O=C(Nc1ccc2oc(-c3cccnc3)nc2c1)c1cccc(Cl)c1 | 5% | 9%
Cn1c(=O)c2c(ncn2CCC(=O)NC(C)(C)C)n(C)c1=O | 5% | 8%
CCOc1ccc(/C(O)=C2\C(=O)C(=O)N(Cc3cccnc3)C2c2ccc(C)cc2)cc1Cl (stereo not given) | 3% | 2%
Cn1c(=O)c2sc3c(c2n(C)c1=O)COC(C)(C)C3 | -6% | -2%
Cc1ccc(C(=O)n2nc(-c3ccco3)nc2NCc2cccs2)cc1 | -2% | 12%
CNC(=O)NC(=O)CCN(C)c1ccccc1 | 23% | 20%
NCCCC(N)(C(=O)O)c1ccccc1 (stereo not given) | -8%[1.06 µM] | ?
CCN(C)c1cccc(NC(=O)c2ccc3ccccc3n2)c1 | 9% | 179%[activator]
CCOc1ccc(CNC(=O)CCc2c(C)nn(-c3ccc(N4CCCCC4)nn3)c2C)cc1 | 5% | -2%
COc1ccc(NC(=O)c2cccc3ccccc23)c2cccnc12 | -10% | -9%
COc1ccc(-c2noc(CNC(=O)COc3cccc(C)c3C)n2)cc1OC | 1% | -9%
COc1ccc2c(CNc3ccc(C)cc3C)cc(=O)oc2c1 | 1% | 3%
Cc1csc2nc(COC(=O)c3ccc(NC(=O)C(C)Oc4ccccc4)cc3)cc(=O)n12 (stereo not given) | 28% | -16%
COc1ccc(-c2cc(C(=O)N3CCCCC3)c3cccc(C)c3n2)cc1 | 44%[activator] | -3%
CC(C)Cc1ccc(C(C)C(=O)OCc2ccccn2)cc1 (stereo not given) | -12% | -18%
COc1cccc(CNC(=O)CCC(=O)N2CC3CCCN3c3ccccc32)c1 (stereo not given) | -12% | -15%
CC(=O)N1CCc2cc(NC(=O)CCc3ncc(-c4ccccc4F)o3)ccc21 | -9% | 84%[activator]
COc1ccc2oc(-c3ccc(C)cc3)cc(=O)c2c1 | 71%[activator] | -42%
O=C(Nc1ccccc1)Nc1c(NC2CCCCC2)c2ccccc2oc1=O | 0% | 4%
COC(=O)CCNC(=O)c1cc(-c2cccs2)nc2ccccc12 | 47%[activator] | 53%[activator]
CCCSc1nc2sc3c(c2c(=O)n1-c1ccc(C)c(Cl)c1)CCN(C(C)=O)C3 | -10% | -24%
CN(Cc1ccsc1)C(=O)c1cccs1 | 2% | 15%
CCOc1ccc2oc(=O)cc(CN(C)Cc3ccccc3)c2c1 | -14% | -15%
Cc1c(C(=O)O)cccc1-c1ccc(C=C(C#N)C#N)o1 | 3% | 233%[activator]
O=C(c1cc2c(s1)-c1ccccc1OC2)N1CCN(c2ccccc2F)CC1 | -7% | -4%
Next part
SMILES | 2A Renilla | StopGo FLuc
COc1ccc(OC)c(C2CCCN2C(=O)CSc2nnnn2C2CCCCC2)c1 (stereo not given) | 19% | 2%
CC(C)CCNC(=O)C(=O)Nc1c2c(nn1-c1ccccc1)CS(=O)(=O)C2 | -5% | -13%
Cc1ccc(NC(=O)c2ccc(NC(=O)N3CCSc4nc(C)cc(C)c43)cc2)c(Cl)c1 | 40%[activator] | 1%
COc1ccc(Cl)cc1NC(=O)[C@H]1C[C@@H]2CCCN2[C@]12C(=O)Nc1ccc(Cl)cc12 | 3% | 1%
Cc1noc(-c2ccc(-c3noc(-c4ccc(F)cc4)n3)cc2)n1 | -9% | -12%
CNC(=O)c1cc(SC)ccc1C | 12% | 0%
N#Cc1c(N)nc2c(c1-c1cccc(F)c1)CCCC2 | 4% | 0%
Cc1cc(C)cc(OCC(=O)Nc2cccc3cccnc23)c1 | 0%&-1% | -2%&3%
CC(C)c1ccc(CN(C)C(C)C(=O)NCc2cccs2)cc1 (stereo not given) | 11% | -1%
CSc1ccccc1C(=O)NCc1coc(-c2cccs2)n1 | ? | ?
Cc1ccc(CN2CCCn3nc(C(=O)NCc4ccc(OC(C)C)cc4)cc3C2=O)cc1 | -19% | ?
Cn1nc(C(=O)NC2CCCC2)c(Cl)c1C(F)(F)F | -13% | 16%
C/C(CC12CC3CC(CC(C3)C1)C2)=N\O | 5% | -3%
COc1ccc(OC)c(CCNC(=O)c2cnn(-c3ccccc3Cl)c2C2CCN(C(=O)OC(C)(C)C)CC2)c1 | 0% | -16%
CCOC(=O)c1c(S(=O)(=O)N2CCC(C(=O)NCc3cccc(C)c3)CC2)c(C)n(C)c1C | 27% | -20%
COc1ccc(C2CC(=O)Nc3c(-c4ccccc4)nsc32)cc1OC (stereo not given) | -23% | -19%
Cc1ccc(-c2cc(C(=O)N3CCOCC3)c3cc(C)ccc3n2)cc1 | 143%[activator] | 106%[activator]
Cc1cc(C(=O)NCc2ccc(CN3CCCC3)cc2)sc1C | 9% | 25%
Cc1nc(C)c(-c2ccc(SCC(=O)Nc3ccc(F)c(F)c3)nn2)s1 | 7.9µM* | ?
CCc1ccc2c(COC(=O)c3[nH]c(C)c(C(C)=O)c3C)cc(=O)oc2c1 | 6% | 3%
CCOC(=O)c1sc2cccc(F)c2c1S(=O)(=O)Nc1cc(OC)ccc1OC | 124%[activator] | 10%
Cc1cccc(C)c1NC(=O)C(C)n1nc(-c2ccccc2)ccc1=O (stereo not given) | -8% | 6%
CCc1ccc2c(CN3C(=O)C(=O)N(C4CCCC4)C3=O)cc(=O)oc2c1 | -9% | 13%
CCOc1ccc(C(=O)c2cn(Cc3cccc(OC)c3)c3cc4c(cc3c2=O)OCO4)cc1 | -6% | -23%
C=CCSCC(=O)NCC1(c2cccc(Cl)c2)CCOCC1 | 10% | 5%
CCS(=O)(=O)N1CCc2cc(C(=O)CSc3ccc(F)c(F)c3)ccc21 | ? | 4%
CCN(Cc1ccccc1)C(=O)Cn1c(=O)n(-c2ccc(F)c(Cl)c2)c(=O)c2sc3ccccc3c21 | -4% | -11%
COc1ccc(C2CC(c3ccccc3NS(=O)(=O)c3ccccc3)=NN2C(C)=O)cc1 (stereo not given) | 8% | 21%
Cc1cccc(C)c1NC(=O)CN(C)C(=O)COC(=O)c1cccnc1Nc1ccccc1F | 11% | 3%
O=C(Nc1ccccc1-c1ccccc1)c1cc(Br)ccc1Cl | 23% | 3%
Brc1ccc(-c2noc(C(c3ccccc3)c3ccccc3)n2)o1 | 18% | 0%
CN(C)C(=O)c1c(NC(=O)c2ccccc2)sc2c1CCC(C(C)(C)C)C2 (stereo not given) | 31% | 11%
CSc1ccccc1C(=O)Nc1cccc(F)c1 | 5% | 0%
COc1ccccc1NC(=O)Cc1cnc(-n2cccc2)s1 | 7% | 66%[activator]
COc1ccc(NC(=O)C2=C(C)Nc3nc(SC)nn3C2c2cc(OC)ccc2OC)cc1 (stereo not given) | 4% | 3%
CN(C)c1cccc(C(=O)N2CCC(c3ccncc3)CC2)c1 | ? | ?
O=C(/C=C/c1ccccc1)Nc1nc2n(n1)C(c1ccc(F)cc1)C=C(c1ccccc1)N2 (stereo not given) | -10% | 29%
CC(C)c1ccccc1NC(=O)CSc1ncnc2ccccc12 | -32% | -16%
CSc1nc(N)c2c(n1)NC1=C(C(=O)CC(C)(C)C1)C2c1cccnc1 (stereo not given) | 7% | -1%
Cn1c(=O)c2c(ncn2CCCOc2ccc(C#N)cc2)n(C)c1=O | -12% | -4%

Reprinted from above (3 entries):
SMILES | 2A Renilla | StopGo FLuc
COc1ccccc1NC(=O)Cc1cnc(-n2cccc2)s1 | 7% | 66%[activator]
COc1ccc(NC(=O)C2=C(C)Nc3nc(SC)nn3C2c2cc(OC)ccc2OC)cc1 (stereo not given) | 4% | 3%
CN(C)c1cccc(C(=O)N2CCC(c3ccncc3)CC2)c1 | ? | ?

Following part.
SMILES | 2A Renilla | StopGo FLuc
O=C(Nc1cc(I)ccc1C(F)(F)F)c1cc(Cl)ccc1Cl | 5% | 23%
Cc1cc(-c2ccc(S(=O)(=O)Nc3cccc(C(F)(F)F)c3)s2)on1 | -15% | ?
O=C(Nc1nnc(S(=O)(=O)N2CCCCCC2)s1)c1ccccc1 | 64%[activator] | 96%[activator]
Cc1cc(C(=O)CN2CCN(Cc3ccc(C#N)cc3)CC2)c(C)n1Cc1cccs1 | ? | ?
Cc1cc(NC(=O)COC(=O)C2(c3cccc(F)c3)CCCC2)no1 | 4% | 5%
CC(C)COc1cccc(N)c1 | 29% | 103%[activator]
COCc1cc(C)n(CC(=O)Nc2cccc(C(C)=O)c2)c(=O)c1C#N | -14% | -7%
CN(Cc1ccccc1N1CCCCC1)C(=O)c1cccc(S(=O)(=O)N2CCOCC2)c1 | 10% | -19%
COC(=O)c1c(C)[nH]c(C(=O)OC(C)C(=O)c2ccc(F)cc2F)c1C (stereo not given) | ? | 3%
O=C(CCNS(=O)(=O)c1ccc2c(c1)CCN2C(=O)C1CC1)Nc1cccc(C(F)(F)F)c1 | 27% | 0%

Seven of these compounds in a different format.
SMILES,2A Renilla,StopGo FLuc
CCc1ccc2c(CN3C(=O)C(=O)N(C4CCCC4)C3=O)cc(=O)oc2c1,-9%,13%
CCCSc1nc2sc3c(c2c(=O)n1-c1ccc(C)c(Cl)c1)CCN(C(C)=O)C3,-10%,-24%
O=C(Nc1cc(I)ccc1C(F)(F)F)c1cc(Cl)ccc1Cl,5%,23%
CSc1ccccc1C(=O)NCc1coc(-c2cccs2)n1,?,?
Cn1c(=O)c2c(ncn2CCCOc2ccc(C#N)cc2)n(C)c1=O,-12%,-4%
COc1ccc(-c2nc(C)c(C(=O)N3CCN(C(C#N)c4ccc(F)cc4)CC3)s2)cc1OC (stereo not given),2%,84%[activator]
O=C(CCn1ccc2cc(S(=O)(=O)N3CCCC3)ccc21)NCc1cccc(Cl)c1,47%[activator],-16%
